Compound activity: PubChem BioAssay, National Center for Advancing Translational Sciences (NCATS)
Six1-Eya2 inh = Six1/Eya2 interaction inhibition. Q15475+O00167. AlphaScreen GST-Six1/His-Eya2 binding, biochemical; active compounds read low; control for the full effect not named in the record. activity change, % (test concentration not listed). 0.56% of 360,000 active. AID 651725; in the data active = activity change below about -65%; inconclusive = about -30% to -65%; inactive = above about -30%; also: % is scaled to controls: 0 for no effect and ±100 for the full control effect
Target sequence (O00167 whole entry, looked up): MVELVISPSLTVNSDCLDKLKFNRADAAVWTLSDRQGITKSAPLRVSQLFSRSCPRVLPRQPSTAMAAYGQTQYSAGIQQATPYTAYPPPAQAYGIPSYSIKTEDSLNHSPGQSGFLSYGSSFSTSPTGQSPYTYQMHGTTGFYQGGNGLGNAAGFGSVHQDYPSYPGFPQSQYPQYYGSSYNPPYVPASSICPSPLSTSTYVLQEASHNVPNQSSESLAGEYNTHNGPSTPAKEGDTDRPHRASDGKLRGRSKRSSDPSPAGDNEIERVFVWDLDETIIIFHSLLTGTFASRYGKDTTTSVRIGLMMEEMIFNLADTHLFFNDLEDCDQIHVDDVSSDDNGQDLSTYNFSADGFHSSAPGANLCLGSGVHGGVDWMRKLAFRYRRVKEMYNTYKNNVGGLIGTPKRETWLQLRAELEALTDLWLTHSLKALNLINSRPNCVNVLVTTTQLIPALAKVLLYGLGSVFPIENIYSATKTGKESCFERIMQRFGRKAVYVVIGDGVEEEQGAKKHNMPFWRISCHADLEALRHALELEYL
Target sequence (Q15475 whole entry, looked up): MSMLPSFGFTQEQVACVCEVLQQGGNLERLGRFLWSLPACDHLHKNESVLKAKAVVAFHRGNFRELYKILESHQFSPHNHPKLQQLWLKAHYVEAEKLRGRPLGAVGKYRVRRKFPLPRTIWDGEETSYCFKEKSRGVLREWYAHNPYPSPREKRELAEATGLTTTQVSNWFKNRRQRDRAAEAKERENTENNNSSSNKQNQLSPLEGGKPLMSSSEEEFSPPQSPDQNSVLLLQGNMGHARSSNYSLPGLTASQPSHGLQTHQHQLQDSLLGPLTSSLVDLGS
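Six1/Eya2 binding was read as AlphaScreen signal after compounds were pinned into GST-Six1 plus His-tagged Eya2 (5X stock 250/500 nM) in pH 8.0 Tris/NaCl/TCEP buffer, beads added, then incubated 1 h, 37 C, dark.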
gsp antagonist = antagonizes gsp, the McCune-Albright syndrome mutation; gsp-mutant cells, cAMP HTRF, 30 min; control for the full effect not named in the record; Potency, µM (doses to about 76.9 µM), inactives show at the top dose activity change, negative = inhibition, usual class: inhibitors; 0.4% of 340,000 active; AID 624288; active = falling curve of any shape with a large fitted effect; inconclusive = falling curve, mostly with a smaller effect; inactive = flat or rising curve; cell line not stated here;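 also: intracellular cAMP measured with PDE inhibitor Ro 20-1724 present during compound exposure; potency is read from the fitted curve at half-maximal effect; % is scaled to controls: 0 for no effect and ±100 for the full control effect; nearly all actives have a fitted effect of over 65% in size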
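Measurement of cellular cAMP by homogeneous time-resolved fluorescence following a 30 min compound exposure at 37C. The PDE inhibitor […] was present throughout; the assay buffer was DPBS with 0.05% BSA and 0.005% Tween 20.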
CtBP-E1A inh = blocks the CtBP interaction with E1A; AlphaScreen GST-E1A/His-CtBP binding, 1536-well; active compounds read low; control for the full effect not named in the record; AID 651724; activity change, % (concentration not given with the values); 0.49% of 340,000 active; in the data active means activity change below about -65%; inconclusive means about -30% to -65%; inactive means above about -30%; also: % is scaled to controls: 0 for no effect and ±100 for the full control effect
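Steps: dispense buffer (Tris pH 8.0, NaCl 300 mM, TCEP 1 mM, BSA, Tween 20); add 5X protein mix (GST-E1A, His-CtBP, 125 nM each); pin 23 nL compound; 2 h at 37 °C, dark; add 5X beads (50 ug/mL); 1 h; read.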
gsp agonist = agonists of gsp mutant (McCune-Albright syndrome); gsp mutant cells, cAMP HTRF, 30 min; control for the full effect not named in the record; Potency, µM (series often up to 76.9 µM), for inactives: top-dose activation (cAMP increase), actives largely listed as activators; 0.13% of 340,000 active; AID 624287; active = well fitted activation curve with a large enough effect; inconclusive = small, poorly fitted or top-dose-only effect, or another doubt; inactive = no such curve, though single readings can be large or run the other way; cell line not stated here;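 also: phosphodiesterase inhibitor Ro 20-1724 added with compounds to block cAMP breakdown; potency is read from the fitted curve at half-maximal effect; nearly all actives have a fitted effect of over 60% in size; about a fifth of the inactives were tested at one dose only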
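Cells stably selected in G418 were plated at 2000/well, grown 16-24 hr, then given compounds in DMSO with the PDE inhibitor […] (300 uM solution added) for 30 min at 37C; cAMP was read by HTRF.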
D2 agonist = activates the human D2 dopamine receptor | P14416 | DiscoveRx PathHunter D2 beta-arrestin, luminescence, 90 min; 100% = 57 uM dopamine signal | activation, % (no concentration beside the values) | 0.084% of 360,000 active | AID 624465; in the data active = activation above about 40%; inconclusive = about 15% to 40%; inactive = below about 15%; also: compound concentration not given in the record; the text of the record calls up to 30% inactive
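DiscoveRx PathHunter D2 beta-arrestin cells (2,100/well) attached overnight, then compound-stimulated 90 min at 37 C in HBSS/10 mM HEPES/0.1% Tween-20 buffer; beta-galactosidase complementation read by luminescence after 1 h at ambient temperature. Dopamine 57 uM final (EC100) as control.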
D2 PAM = positive allosteric modulators of human D2 dopamine receptor; P14416; DiscoveRx D2 beta-arrestin cells, luminescence, 90 min; 100% = 57 uM dopamine signal; potentiation, % (test concentration not listed); 0.23% of 360,000 active; AID 624464; active = potentiation of 50% or more; inconclusive = 30% to 50%; inactive = 30% or less;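 also: compound concentration not given in the record; tested on top of an EC20 dose of dopamine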
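D2 cells co-treated with compound plus 50 nM dopamine (EC20) for 90 min at 37 deg C to detect potentiation. Beta-arrestin recruitment was read as enzyme-fragment luminescence after 1 h at ambient temperature. Full response was set by 57 uM dopamine.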
Numbers without * were called inactive; ? = inconclusive; nt = not tested or not shown; [ ] = dose if it differs, or a comment. Compounds as they come; about 1.4% have a hit in one of these screens.

SMILES	Six1-Eya2 inh	gsp antagonist	CtBP-E1A inh	gsp agonist	D2 agonist	D2 PAM
Cc1ccc2c(c1)NC(=O)C(CC(=O)NCc1ccc(F)cc1)O2 (stereo not drawn)	8	3%	-15	?	-2.7	-5
C=CCOc1ccc(C=Nc2ccc(C)c(Cl)c2)c(O)c1	6	8%	12	-1%	-3.1	-7
CCOC(=O)Cn1nnc(-c2ccccc2)n1	0	-18%	7	-8%	-4.1	1
O=Nc1c(O)n(Cc2ccc(Cl)cc2Cl)c2ccccc12	-19	?	-17	-3%	-0.3	-6
COC(=O)N1CCCCC1c1cc(C(=O)NCc2ccccc2)no1 (stereo not drawn)	3	nt	2	nt	-5.0	-3
COc1ccc(Nc2nccc(-c3cccc(N)c3)n2)cc1	4	-12%	0	-26%	-2.0	13
Cc1ccccc1OCCNc1ccc(C(F)(F)F)cc1[N+](=O)[O-]	?	-2%	-23	5%	-2.1	5
COc1cc2c(cc1OC)/C(=C/C(=O)c1ccccc1F)NCC2	-26	19%	-30	-3%	4.6	-4
CCc1cccc(CC)c1NC(=S)/C(=C(\[O-])c1ccc(Cl)s1)[n+]1ccccc1	-9	6%	3	?	-6.3	-6
CN(C)c1ccc(NC(=O)c2ccc([N+](=O)[O-])cc2Cl)cc1	-1	1%	-7	7%[15.4 µM]	0.9	6
Nc1nc(-c2ccccc2Cl)cs1	6	0%	2	-23%[15.4 µM]	-6.5	-13
CC(C)NC(=O)c1ccccc1NC(=O)Cc1ccc([N+](=O)[O-])cc1	2	-14%	-9	13%[15.4 µM]	3.3	2
O=C(NCCNC(=O)c1cnccn1)c1ccc(Cl)cc1	0	11%	-6	26%	-0.7	-8
O=C(CSCc1ccc([N+](=O)[O-])cc1)NN=C1CCCCCC1	16	14%	0	2%	-1.1	19
CC(C)c1ccc(CN2CCC(C(=O)NCc3cccnc3)CC2)cc1	-4	-10%	-2	12%	-2.3	-19
Cc1ccc(N2C(=O)c3ccc(C(=O)N4CCOCC4)cc3C2=O)cc1C	5	9%	-2	-28%	-2.3	-8
O=C(NCCCN1CCOCC1)c1cc2cc(Br)ccc2oc1=O	4	20%	-1	0%	-1.1	-22
COC(=O)c1cnc(NNS(=O)(=O)c2ccc(Cl)cc2)nc1C(F)(F)F	2	-2%	4	10%[15.4 µM]	5.0	8
CC(NC(=O)c1nn(C)c2c1CS(=O)(=O)c1ccccc1-2)c1ccccc1 (stereo not drawn)	0	-6%	-13	13%	-1.7	-6
Cc1cc(Oc2ccc([N+](=O)[O-])cc2)nc(N2CCOCC2)n1	0	8%	3	-2%	-4.0	-10
CCOC(=O)N/N=C/c1c[nH]c2ccccc12	0	4%	5	-2%	4.4	-13
CN(C)CCOc1ccc(-c2c(-c3ccsc3)sc3ccccc23)cc1	-12	6%	-14	nt	5.7	-51
Cc1cccc(N=Cc2[nH]c3ccc(Br)c(Cl)c3c2O)c1	0	6%	23	?	-0.2	-37
O=C(C(=O)N1CCCC1CO)N1CCCC1CO (stereo not drawn)	-3	12%	0	-2%[15.4 µM]	-1.7	-3
CC(OC(=O)CCC(=O)c1ccc(Cl)s1)C(=O)NC1(C#N)CCCCC1 (stereo not drawn)	6	4%	-9	34%	0.0	-10

New compounds follow
SMILES	Six1-Eya2 inh	gsp antagonist	CtBP-E1A inh	gsp agonist	D2 agonist	D2 PAM
O=C(O)c1ccccc1C1Nc2ccccc2C(=O)N1CCCN1CCOCC1 (stereo not drawn)	2	8%	nt	-17%	0.9	2
CCN(CC(=O)NC(C)(C)C)C(=O)c1cccc(S(=O)(=O)N2CC3(C)CC2CC(C)(C)C3)c1 (stereo not drawn)	4	nt	-1	-51%[inhibitor]	-4.2	-10
Cc1ccc(NC(=O)CCNS(=O)(=O)c2ccc3c(c2)c(=O)n(C)c(=O)n3C)cc1C	-15	-5%	2	-19%	-0.6	-11
COc1cc(CNc2cc(C)ccc2C)cc(OC)c1OC	-15	-28%	-7	-15%	1.2	-12
O=C(COc1ccc(F)cc1)N1CCC(Cc2ccccc2)CC1	9	-16%	18	-7%	4.4	-3
COC(=O)c1cc(COc2ccc3oc(C)c(C(=O)OC(C)C)c3c2)c(C)o1	9	-7%	13	-4%	-2.3	-5
O=C(NCCN1CCc2ccccc2C1)Nc1ccc(F)cc1	-4	5%	4	-7%	1.9	-11
O=C(COC(=O)c1ccccc1)NCC1COc2ccccc2O1 (stereo not drawn)	8	nt	6	?	0.1	-10
COc1ccc(C(c2sc3nc(C)nn3c2O)N2CCC(C(N)=O)CC2)cc1OC (stereo not drawn)	-2	9%	0	14%	1.8	1
O=C(NCCc1ccccn1)c1cc(-c2ccc(Cl)c(Cl)c2Cl)nc2ccccc12	2	?	-2	?	-3.7	-20
CCN1CCN(c2ccc(S(=O)(=O)N3CCOCC3)cc2N)CC1	13	6%	-6	-1%[15.4 µM]	-2.6	-24
CCCCN(CCCNC(=O)c1c(C)cc(=O)oc1C)c1ccccc1	-21	-7%	-17	2%	-3.0	-10
COc1cc(-c2nc(C(=O)NCC3CCCO3)cc3c2[nH]c2ccccc23)cc(OC)c1OC (stereo not drawn)	-8	-12%	-10	nt	15	2
CCN(CC)c1ccc(NC(=O)Cn2c(C(C)NC(=O)c3ccccc3)nc3ccccc32)cc1 (stereo not drawn)	-9	11%	-3	-4%	-1.0	-21
O=C1CN(C(=O)c2cccc(F)c2)C(c2ccc(F)cc2)c2cc(F)ccc2N1 (stereo not drawn)	29	-13%	10	-10%[15.4 µM]	2.3	1
COc1cc(NC(=O)c2cc3c(C)nc4ccccc4c3o2)cc(OC)c1OC	?	-9%	-12	5%	0.6	18
CCOc1ccc(CCNC(=O)CCNC(=O)c2ccco2)cc1OCC	-3	11%	-18	1%	0.0	3
O=C(Cn1cnc2c(nnn2-c2ccc(F)cc2)c1=O)NCc1ccco1	-1	5%	-4	30%	1.5	-9
Cc1ncc(CO)c2c1Oc1nc(-c3ccccc3)nc(SCC(=O)N3CCCCC3)c1C2	-10	?	-14	?	12	?
COC(=O)C1=CN(c2cc(C)cc(C)c2)C=C(C(=O)OC)C1c1cccc(F)c1	8	5%	8	?	-2.0	-9
S=c1[nH]nc(CN2CCCCC2)n1-c1ccc(Cl)cc1	7	1%	3	-6%[15.4 µM]	-6.1	0
O=C(NCc1ccc(F)cc1)C1CCC(CNc2c(N3CCCCC3)c(=O)c2=O)CC1 (stereo not drawn)	4	5%	-15	22%	-1.5	-6
Cc1nn(-c2ccccc2)c2nc(-c3ccncc3)cc(C(=O)NCc3ccco3)c12	-4	5%	-1	-2%	-1.8	2
COc1ccc(-n2nc(C(=O)NCC(=O)N3CCN(c4ccccc4OC)CC3)c3ccccc3c2=O)cc1OC	9	-34%	10	20%[15.4 µM]	1.4	-1
COc1cc(OC)c2ccc(=O)oc2c1C(CCN1CCCC(C)C1)c1ccc2c(c1)OCO2 (stereo not drawn)	-10	2%	22	nt	-1.8	-22

(next part)
SMILES	Six1-Eya2 inh	gsp antagonist	CtBP-E1A inh	gsp agonist	D2 agonist	D2 PAM
Cc1ccc2cc(CN(C(=O)c3ccco3)c3cccc(C)c3C)c(=O)[nH]c2c1	-2	?	-1	-13%[15.4 µM]	0.8	0
Cc1c(Cl)cnc(NC(=O)COC(=O)[C@@H](NC(=O)c2ccco2)C(C)C)c1Cl	-7	-12%	5	-6%	-3.6	-1
O=C(Cn1nnc(-c2ccccc2NC(=O)C2CC2)n1)NC1CCCCC1	-8	2%	2	15%	-0.8	13
COc1ccc2c(COC(=O)c3ccc(C)c(S(=O)(=O)N4CCOCC4)c3)cc(=O)oc2c1	-7	-26%	8	13%	2.4	-1
CC(NC(=O)CC12CC3CC(CC(C3)C1)C2)C(=O)O (stereo not drawn)	-3	2%	0	14%	-1.1	-8
COc1ccc(NC(=O)CCSCCC(=O)Nc2ccc(OC)cc2OC)c(OC)c1	-3	5%	3	-4%	1.5	20
Cn1nc(C(F)(F)F)c2cc(C(=O)Nc3ccc(Cl)cc3)sc21	9	-24%	2	-108%	1.9	-37
COc1ccc(CN(C(=O)c2ccccc2OC)C2CCS(=O)(=O)C2)cc1 (stereo not drawn)	5	-23%	4	?	-7.0	-8
CC(CNC(=O)c1ccc(-c2ccccc2)cc1)CN(C)C (stereo not drawn)	1	12%	2	-6%	-1.3	-25
CCN(CC)S(=O)(=O)c1cccc(-c2nnc(SCCCC(=O)c3ccccc3)o2)c1	9	-19%	9	0%	-0.6	-3
Nc1ccc(S(=O)(=O)NCC(=O)OCCOc2ccccc2)cc1[N+](=O)[O-]	-6	-23%	-1	7%[15.4 µM]	-3.5	-1
COc1ccc(C)cc1NC(=O)c1ccc2c(c1)OCO2	9	0%	7	-26%	0.2	-1
CC(C)(Cc1ccccc1)/[N+]([O-])=C\c1ccc(C(F)(F)F)cc1	4	3%	2	nt	0.0	-33
O=C1C(=O)N(CCN2CCOCC2)C(c2cccc(Cl)c2)/C1=C(\O)c1ccc2c(c1)OCCO2 (stereo not drawn)	4	-1%	7	?	-3.9	-8
Cc1cccc(N2CCN(C(=O)COc3noc4nc(C)cc(C)c34)CC2C)c1 (stereo not drawn)	2	nt	4	?	-4.6	1
CCC(=O)N1c2ccc(S(=O)(=O)CCC(=O)NCc3cccs3)cc2CC1C (stereo not drawn)	3	2%	4	2%	-2.0	-9
C(=C\CSc1ncn[nH]1)/CSc1ncn[nH]1	2	5%	-1	13%	-3.8	-7
CCOC(=O)c1nn(-c2ccc(F)cc2)c(=O)cc1OCC(=O)Nc1ccc(OCC)cc1	-4	2%	7	-7%[15.4 µM]	-3.2	-67
COc1ccc(C2=NOC(C(=O)NC3CCCCC3)C2)cc1OC (stereo not drawn)	1	-5%	6	27%	1.4	9
C[C@H]1COC(=O)[C@H](Cc2ccc(F)cc2)C/C=C\C[C@H](CC(=O)N(CCO)Cc2ccccc2)C(=O)N1	-4	2%	nt	-8%	2.9	3

Arranged by molecular weight (ascending): part of the list above.
SMILES	Six1-Eya2 inh	gsp antagonist	CtBP-E1A inh	gsp agonist	D2 agonist	D2 PAM
C(=C\CSc1ncn[nH]1)/CSc1ncn[nH]1	2	5%	-1	13%	-3.8	-7
CC(C)(Cc1ccccc1)/[N+]([O-])=C\c1ccc(C(F)(F)F)cc1	4	3%	2	nt	0.0	-33
Cc1cccc(N2CCN(C(=O)COc3noc4nc(C)cc(C)c34)CC2C)c1 (stereo not drawn)	2	nt	4	?	-4.6	1
CCC(=O)N1c2ccc(S(=O)(=O)CCC(=O)NCc3cccs3)cc2CC1C (stereo not drawn)	3	2%	4	2%	-2.0	-9
CCOC(=O)c1nn(-c2ccc(F)cc2)c(=O)cc1OCC(=O)Nc1ccc(OCC)cc1	-4	2%	7	-7%[15.4 µM]	-3.2	-67
